Source: PubChem
CtBP-E1A inh – qHTS Assay for Inhibitors of the CtBP/E1A Interaction; CtBP / adenovirus E1A interaction (AlphaScreen); 0.49% of 340,000 active; activity change, % (no concentration beside the values); AlphaScreen GST-E1A/His-CtBP binding, 1536-well; stronger effect = lower value; control for the full effect not named in the record; in the data active means activity change below about -65%; inconclusive means about -30% to -65%; inactive means above about -30%; note: % is set by controls: 0 for no effect and ±100 for the full control effect; compound concentration not given in the record
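AlphaScreen with 125 nM GST-E1A and 125 nM His-CtBP (5X stocks) in Tris pH 8.0, 300 mM NaCl, BSA, Tween 20, TCEP. Compounds preincubated 2 h at 37 deg C, then glutathione donor/nickel acceptor beads added for 1 h at 37 deg C in dark.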
TRPV1 PAM – HTS Assay for Compounds that Act as Potentiators of the Vanilloid Receptor 1; Transient receptor potential cation channel subfamily V member 1 (Homo sapiens), Q8NER1; TRPV1-expressing cells, Fluo-8 calcium influx, capsaicin EC20 potentiation; host cell line not named in the record; control for the full effect not named in the record; potentiation, % at 8.33 µM; 0.02% of 320,000 active; active means potentiation above 80%; inconclusive means 30% to 80%; inactive means below 30%; note: 0% is about no effect
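Cells expressing TRPV1 were dye-loaded with Fluo-8 and read kinetically: 10 s baseline, 3 min after compound (agonist portion), then 2 min after EC20 capsaicin (allosteric enhancer portion). Calcium-bound dye fluorescence at 480/520 nm.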
TRPML1 agonist – qHTS for Agonists of the Human Mucolipin Transient Receptor Potential 1 (TRPML1) | Mucolipin-1 (Homo sapiens), Q9GZU1 | activation, % (no concentration beside the values) | TRPML1-expressing cells, Ca2+ dye fluorescence, FDSS; host cell line not named in the record; reference of the full effect not given here | AID 624414, 2012 | 0.12% of 410,000 active; in the data active = activation above about 50%; inconclusive = about 30% to 50%; inactive = below about 30%; note: 0% is about no effect; the text of the record puts the active cut at 80%
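Calcium fluorescence on an FDSS kinetic reader gave the read-out. Tet-induced TRPML1-DL cells were plated overnight, dye-loaded (Ca8 with quencher, 45-90 min, room temperature, dark), then read 110 s after compound addition, and again 110 s after 4uM final 54-4 (EC80).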
TRPML1 inh – qHTS for Inhibitors of the Human Mucolipin Transient Receptor Potential 1 (TRPML1) | AID 624415, 2012 | 0.02% of 390,000 active | Mucolipin-1 (Homo sapiens), Q9GZU1 | activity change, negative = inhibition, % (concentration not given with the values) | TRPML1-inducible cells, Ca2+ dye fluorescence, FDSS; stronger effect = lower value; inhibition of EC80 agonist-evoked calcium signal; in the data active means activity change below about -50%; inconclusive means about -30% to -50%; inactive means above about -30%;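 note: stimulus is agonist 54-4 at its EC80 concentration; % is set by controls: 0 for no effect and ±100 for the full control effect; compound concentration not given in the record; the text of the record puts the active cut at -80%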
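Calcium fluorescence in TRPML1-DL cells induced overnight with Tet: a 110 s read after compound pin addition, then a 110 s antagonist read after challenge with 54-4 at 4 uM final (EC80).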
D2 potentiator – Beta-Arrestin HTS for Positive Allosteric Modulators of the Human D2 Dopamine Receptor: Potentiators; potentiation, % (no concentration beside the values); DiscoveRx D2 beta-arrestin cells, luminescence, 90 min; 100% = 57 uM dopamine signal; 0.23% of 360,000 active; active = potentiation of 50% or more; inconclusive = 30% to 50%; inactive = 30% or less;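 note: compound concentration not given in the record; tested on top of an EC20 dose of dopamine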
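D2 cells co-treated with compound plus 50 nM dopamine (EC20) for 90 min at 37 deg C to detect potentiation. Beta-arrestin recruitment was read as enzyme-fragment luminescence after 1 h at ambient temperature. Full response was set by 57 uM dopamine.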
Six1-Eya2 inh – qHTS Assay for Inhibitors of the Six1/Eya2 Interaction. Homeobox protein SIX1 (Homo sapiens) + Protein phosphatase EYA2 (Homo sapiens), …. AlphaScreen GST-Six1/His-Eya2 binding, biochemical; stronger effect = lower value; control for the full effect not named in the record. activity change, % (test concentration not listed). 0.56% of 360,000 active. AID 651725, 2012; in the data active = activity change below about -65%; inconclusive = about -30% to -65%; inactive = above about -30%; note: % is set by controls: 0 for no effect and ±100 for the full control effect; compound concentration not given in the record
Target sequence (O00167 whole entry, looked up): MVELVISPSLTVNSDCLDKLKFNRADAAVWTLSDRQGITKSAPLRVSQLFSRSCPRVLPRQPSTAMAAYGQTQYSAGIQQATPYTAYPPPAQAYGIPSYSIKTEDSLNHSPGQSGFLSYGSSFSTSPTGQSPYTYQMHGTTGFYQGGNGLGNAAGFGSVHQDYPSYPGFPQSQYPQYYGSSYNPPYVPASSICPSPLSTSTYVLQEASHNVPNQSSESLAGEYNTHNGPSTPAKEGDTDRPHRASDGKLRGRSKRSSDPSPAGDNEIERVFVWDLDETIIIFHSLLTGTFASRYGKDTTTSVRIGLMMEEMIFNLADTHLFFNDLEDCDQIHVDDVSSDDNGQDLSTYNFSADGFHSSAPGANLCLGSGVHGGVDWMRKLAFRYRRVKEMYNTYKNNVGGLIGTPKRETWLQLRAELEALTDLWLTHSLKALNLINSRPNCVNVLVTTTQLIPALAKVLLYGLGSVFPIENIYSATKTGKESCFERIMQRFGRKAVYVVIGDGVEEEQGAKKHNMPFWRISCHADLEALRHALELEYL
Target sequence (Q15475 whole entry, looked up): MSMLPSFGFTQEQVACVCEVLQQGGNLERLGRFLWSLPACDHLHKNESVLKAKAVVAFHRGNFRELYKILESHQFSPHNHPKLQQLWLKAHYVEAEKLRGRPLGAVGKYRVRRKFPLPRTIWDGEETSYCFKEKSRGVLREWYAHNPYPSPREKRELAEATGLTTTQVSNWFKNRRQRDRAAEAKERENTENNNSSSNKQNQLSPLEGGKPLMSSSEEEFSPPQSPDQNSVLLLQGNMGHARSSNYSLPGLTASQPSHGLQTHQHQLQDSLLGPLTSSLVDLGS
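Six1/Eya2 binding was read as AlphaScreen signal after compounds were pinned into GST-Six1 plus His-tagged Eya2 (5X stock 250/500 nM) in pH 8.0 Tris/NaCl/TCEP buffer, beads added, then incubated 1 h, 37 C, dark.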
Active calls of the source: *; ? = inconclusive; · = not tested or not shown; & = joins results of further samples.

SMILES	CtBP-E1A inh	TRPV1 PAM	TRPML1 agonist	TRPML1 inh	D2 potentiator	Six1-Eya2 inh
COc1ccc(N(CC(=O)Nc2cc(OC)cc(OC)c2)S(=O)(=O)c2c(C)n[nH]c2C)cc1	-19	3	1.1	23	-17	0
COc1ccc(-n2cc(-c3ccc(C)cc3)[n+]3c2SCC3)cc1	-5	10	0.5	34	-21	14
Cc1cccc(OCCNC(=O)c2ncn[nH]2)c1	-5	-1	0.2	25	-4	0
COc1ccc(C)cc1N(CC(=O)NC1CCCC1)C(=O)CCC(=O)Nc1cc(C)on1	1	0	-0.6	21	-11	4
CN(C)CC1CCC/C(=C/c2ccc(Cl)cc2)C1=O (centres undefined)	11	·	-0.5	-14	-2	-4
O=C(c1ccco1)N1CCN(Cc2cccc3ccccc23)CC1	-3	?	2.8	1	14	12
O=C(Nc1ccc2[nH]c(=O)[nH]c2c1)c1ccc(Br)o1	-12	2	-0.6	12	2	-5
CN(CC(=O)Nc1cccc(F)c1)C(=O)C1CSC2(C)CCC(=O)N12 (centres undefined)	-20	-7	1.0	-8	3	6
O=C(O)C1C2CCC(O2)C1C(=O)Nc1ccc(F)cc1 (centres undefined)	6	3	0.2	-1	-7	8
CCCn1nc(C(=O)NNC(=O)CCCOc2ccc(OC)cc2)c2ccccc2c1=O	-7	-1	0.1	-10	-3	0
COc1ccc(-c2cc(-c3ccc(OC)c(OC)c3)n[nH]2)c(O)c1	-24	2	-0.5	-3	18	-20
COc1ccc(CCNC(=O)C(=O)c2c(C)[nH]c3ccccc23)cc1	·	?	3.5	-6	-4	5
Cc1ccc2c(c1)N(CCCC(=O)NCC1COc3ccccc3O1)C(=O)CO2 (centres undefined)	2	1	0.9	-2	-22	4
c1ccc(CN(Cc2ccccc2)c2nn[nH]n2)cc1	13	?	1.3	-3	-4	8
O=C(NCC1CCCO1)C1CCCN1C(=O)Nc1ccc(Cl)cc1 (centres undefined)	·	-2	0.5	-8	-43	8
Cc1cc(Br)ccc1OCCCCNCCO	4	12	2.3	31	2	5
Cc1cc(Cl)ccc1OCC(=O)N/N=C1\CCCc2ccccc21	3	·	0.1	-15	-3	2
CCOC(=O)CC1(c2ccc(OC)c(OC)c2)C(=O)c2ccccc2C1=O	-3	·	0.1	-5	1	-1
O=C(COC(=O)Cc1ccc(F)cc1)Nc1ccc(Cl)cn1	·	-22	0.6	-1	-1	4
CC1(C)CC(=O)c2cnc(NC(=O)Cc3ccc(Cl)cc3)nc2C1	-3	6	-1.0	9	-17	-5
Cc1cccc(-c2c3c(=O)n(C)c(=O)n(C)c3c3nnc4ccccc4n23)c1	5	·	0.1	-6	-7	1
Nc1c(C(=O)c2ccc(Br)s2)oc2ccccc12	8	-16	1.9	9	-6	20
Cc1ccc(S(=O)(=O)N2CCC(=O)c3ccccc32)cc1	0	·	0.0	-11	-9	2
CC(=O)c1ccc(NC(=S)NC(C)CCc2ccccc2)cc1 (centres undefined)	-12	-4	1.5	15	-7	4
Cc1ccc(OCC(=O)N(Cc2cccs2)C2CCS(=O)(=O)C2)cc1C (centres undefined)	7	-13	0.9	-18	-10	2

Additional compounds:
SMILES	CtBP-E1A inh	TRPV1 PAM	TRPML1 agonist	TRPML1 inh	D2 potentiator	Six1-Eya2 inh
COc1ccc2oc(C(F)(F)C(F)(F)F)cc(=O)c2c1	7	3	1.2	-18	-6	3
Cc1ccc(NC(=O)CN(C)C(=O)Cc2c(Cl)cccc2Cl)cc1	1	-6	-0.1	11	-7	4
Cc1ccc2nc3n(c(=O)c2c1)-c1ncccc1C(=O)NC3Cc1ccc(O)cc1 (centres undefined)	-3	·	-0.3	7	-10	-2
O=C(COc1coc(CN2CCN(c3ccccc3)CC2)cc1=O)Nc1ccccc1F	-9	17	0.5	-10	-3	3
Fc1cccc(/C=N/NC(=S)Nc2ccccc2Cl)c1	13	4	2.2	-15	-12	3
Cc1ccc(NC(=O)C(=Cc2ccc(C(=O)O)cc2)C(=O)Nc2ccc(C)cc2C)c(C)c1	4	-38	-0.5	-10	-28	-21
COC(=O)c1ccc(NC(=O)Nc2cccc(F)c2)cc1	8	-3	-0.1	21	-8	0
CCC(C)c1ccccc1NC(=O)C(C)OC(=O)c1ccco1 (centres undefined)	9	-7	0.0	3	-4	3
CCOC(=O)C1CCCN(C(=O)C(=O)Nc2ccc3nc4n(c(=O)c3c2)CCCCC4)C1 (centres undefined)	-26	-7	1.1	-27	5	-1
Cc1ccc(C(=O)Nc2ccc3c(c2)OCO3)cc1S(=O)(=O)N1CCCC1	?	-17	-0.4	-2	6	?
CCC(c1nc2ccccc2c(=O)n1CCCn1ccnc1)N1C(=O)c2ccccc2C1=O (centres undefined)	-17	6	1.9	14	-20	-16
CNc1nnc(-c2ccc(C)cc2)c2ccccc12	0	-10	3.4	23	-6	-3
Cc1ccc(/C=C2\S/C(=N/S(=O)(=O)c3cccs3)NC2=O)cc1	·	8	0.1	-3	-6	-67*
CCN(CC(=O)NC(C)(C)C)C(=O)C(c1ccccc1)c1ccccc1	1	0	-0.9	13	-5	6
O=C(COC(=O)c1c(F)cccc1Cl)NC(=O)Nc1ccc2c(c1)OCCO2	·	-10	-1.1	2	-3	1
CSc1ccc(C(O)c2ncc(-c3cccc(OCc4ccccc4)c3)[nH]2)cc1 (centres undefined)	-20	·	-0.6	·	-2	-26
COC(=O)c1ccc(SCC(=O)NC2CCCC2)c([N+](=O)[O-])c1	2	-3	-0.8	1	-8	2
CC1(C)CC(=O)C(CS(=O)(=O)c2ccccc2)=C(Cl)C1	2	6	-0.2	23	-8	0
CCCN(CCC)C1=CC(=[N+]2CCCC2)CC(C)(C)C1	-2	-4	0.7	20	-7	5
O=C(Nc1nc(-c2cccs2)cs1)c1ccc(S(=O)(=O)N2CCCCC2)cc1	6	3	-1.2	-5	4	-2
NC1=C(c2ccc([N+](=O)[O-])cc2)C(=O)CO1	3	9	-0.7	-7	-8	-2
Cc1cccc(-n2c(=O)c(C#N)cc3c(=O)n4ccccc4nc32)c1	7	9	0.9	-9	-6	-1
COc1ccc(S(=O)(=O)N2CCN(C/C=C/c3ccccc3)CC2)cc1F	-7	5	1.2	3	-1	3
COc1ccc(S(=O)(=O)/C(C#N)=C/Nc2ccccc2F)cc1	·	-17	5.2	27	-6	-6
Cc1ccc(OCc2nc(C#N)c(NCc3ccc4c(c3)OCO4)o2)cc1	-16	7	1.2	27	7	-29

Additional entries.
SMILES	CtBP-E1A inh	TRPV1 PAM	TRPML1 agonist	TRPML1 inh	D2 potentiator	Six1-Eya2 inh
C=CCN(C(=O)c1cccc(C(F)(F)F)c1)C1(C(=O)Nc2ccccc2)CCN(C(C)C)CC1	10	0	-0.3	-9	-3	2
Cc1cccc(N2CCN(C(=O)C3CC(=O)N(c4ccc5c(c4)OCCO5)C3)CC2C)c1 (centres undefined)	4	3	2.1	-11	20	-1
CCOC(=O)Cc1csc(NC(=O)C2C3C=CC(C3)C2C(=O)O)n1 (centres undefined)	-2	12	-1.0	-13	-37	0
O=C(NC1CCCCC1)NC1CC2CCCC(C1)N2C1CCCC1 (centres undefined)	-7	-4	0.6	0	-12	-11
CC(=O)Nc1cccc(-c2ccnc3c2CC(C)(C(=O)NCc2ccc(N(C)C)cc2)O3)c1 (centres undefined)	-28	·	-0.8	·	5	-20
CS(=O)(=O)c1ccc(-c2nnn(CC(=O)Nc3ccc4c(c3)OCCO4)n2)cc1	17	-8	-1.3	7	-5	9
Cc1cc(=O)c2ccccc2[nH]1	-4	8	1.2	5	15	-10
Clc1cccc(Cc2c(C3CCCCC3)nc3ccc(Cl)cn23)c1	6	·	1.1	-16	-2	-6
CC1(C)CC[C@]2(C(=O)O)CC[C@]3(C)C(=CCC4[C@@]5(C)CC[C@H](O)C(C)(C)C5CC[C@]43C)C2C1 (some centres undefined)	6	12	-0.1	-1	-2	2
Cc1ccc(-c2nc3ncccn3c2NC(=O)C2CC2)cc1	2	1	-0.2	15	-5	12
Cc1ccccc1N=C(NO)c1nonc1N	-1	-7	1.0	-4	4	-17
O=C(NC1CCN(S(=O)(=O)c2cccc(Cl)c2)CC1)C1CCCCC1	-3	3	1.0	-4	0	-8
O=C(NCc1ccccc1)C1(C(F)(F)F)CC(CCCO)CCCO1 (centres undefined)	7	·	-0.6&0.8	-2&-9	-3	3
CCOC(=O)c1sc2ncnc(N3CCN(C)CC3)c2c1C	·	?	0.5	-5	-11	11
COc1ccccc1C(=O)NCc1ccccn1	·	-12	0.5	14	-9	-13
Cc1ccc(S(=O)(=O)N(C)C)cc1NC(=O)CN1C(=O)NC(Cc2ccccc2)C1=O (centres undefined)	-2	2	-1.0	-9	-25	-1
O=C(C1CC(=O)N(c2ccc3c(c2)OCCO3)C1)N1CCN(c2ccccc2O)CC1 (centres undefined)	-16	-5	-0.5	1	3	-20
COc1ccc(NC(=O)/C(N=Nc2cc(S(=O)(=O)Nc3ccc(OC)cc3)ccc2OC)=C(\C)O)cc1	3	27	0.1	17	-3	-7
CCOC(=O)NC(=O)c1cn(Nc2ncc(Cl)cc2C(F)(F)F)c(=O)[nH]c1=O	10	8	-0.1	-5	0	5
C=CCNC(=O)CC(=O)N/N=C/c1cccc(Br)c1	-14	16	0.1	3	-13	0
CC1CCCCN1C(=O)c1cc2nc(-c3ccccc3)cc(-c3ccccc3)n2n1 (centres undefined)	46	-9	3.3	49	-18	43
CS(=O)(=O)N(CCC#N)Cc1ccco1	3	15	0.8	7	-5	5
C/C=C(\C)C(=O)NCCN1C2=NC[C@H](C(C)C)N2C[C@@H]1Cc1ccc(OC)cc1	-70*	14	-0.8	-13	-11	-72*
O=C(OCC(=O)N1c2ccccc2Sc2ccccc21)C1CC(=O)N(Cc2ccco2)C1 (centres undefined)	-2	15	5.0	-9	-3	-13

Six compounds out of the list, ordered by molecular weight, largest number first:
SMILES	CtBP-E1A inh	TRPV1 PAM	TRPML1 agonist	TRPML1 inh	D2 potentiator	Six1-Eya2 inh
CC1(C)CC[C@]2(C(=O)O)CC[C@]3(C)C(=CCC4[C@@]5(C)CC[C@H](O)C(C)(C)C5CC[C@]43C)C2C1 (some centres undefined)	6	12	-0.1	-1	-2	2
O=C(NC1CCN(S(=O)(=O)c2cccc(Cl)c2)CC1)C1CCCCC1	-3	3	1.0	-4	0	-8
Clc1cccc(Cc2c(C3CCCCC3)nc3ccc(Cl)cn23)c1	6	·	1.1	-16	-2	-6
CCOC(=O)c1sc2ncnc(N3CCN(C)CC3)c2c1C	·	?	0.5	-5	-11	11
Cc1ccc(-c2nc3ncccn3c2NC(=O)C2CC2)cc1	2	1	-0.2	15	-5	12
Cc1ccccc1N=C(NO)c1nonc1N	-1	-7	1.0	-4	4	-17
